UUG fidelity: modulators of yeast start codon fidelity, primary screen, whole organism, S. cerevisiae, single point, plate reader; activity score, % at 18.7 µM; AID 602363, 2012; 0.13% of 350,000 active; S. cerevisiae UUG-firefly luciferase reporter, luminescence/redox ratio;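 active means replicate mean at a twofold rise or more, about +100% in these data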;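 further: firefly luciferase made from a UUG start codon reports start codon fidelity; reporter light over untreated wells divided by growth signal over untreated wells; some hits fall short of that in this replicate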
Env fusion inh: inhibitors of HIV-1 Env-driven cell-cell fusion, primary screen, HeLa-JRFL effector, CEM21 target cells, luciferase | 1.1% of 360,000 active | inhibition, % at 12.3 µM;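 active means mean replicate inhibition score of at least 50 and every replicate individually at or above 50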;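 further: 0% = plate neutral controls and 100% = maraviroc near 300 nM; one replicate is shown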
eIF4H FP inh: human eIF4H binding inhibitors, primary screen, translation initiation inhibitor project, biochemical, uHTS, fluorescence polarization. Eukaryotic translation initiation factor 4H (Homo sapiens), Q15056. eIF4H fluorescence polarization binding assay. inhibition, % at 35 µM. 0.94% of 290,000 active;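 active means 50% or more with normal probe brightness, or confirmed in later tests; about a fifth of its hits are not listed in these tables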;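 further: calls also rest on retests at 20 µM and on dose response follow-up; 0% = protein and probe with vehicle and 100% = probe without protein; strong numbers were not always called active; many hits fall short of the cut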
MT1-MMP act inh: blockers of MT1-MMP proenzyme processing, primary screen, HT1080 RFP-PRO-GFP cells, GFP/RFP fluorescence; GFP/RFP ratio fluorescence, overnight; percent of plate control window, DMSO zero; GFP/RFP ratio change, % at 20 µM; 0.061% of 360,000 active; AID 651647, 2012;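 active means GFP/RFP ratio change of at least 30% with cell ATP level not reduced by more than half and red fluorescence within 50% of control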; further: strong numbers were not always called active
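system = RFP-PRO-GFP reporter HT1080 cells | dosing = 20 µM single dose, 1% DMSO | timing = overnight cell settling, then overnight compound exposure, 37 °C, 5% CO2 | read-out basis = GFP/RFP fluorescence ratio | controls = DMSO and RFP-L50D-GFP cell wells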
Rce1 inhib: yeast Rce1p protease inhibitors, primary screen, biochemical, fluorescence, cell-free homogeneous; CAAX prenyl protease 2 (Saccharomyces cerevisiae (strain ATCC 204508 / S288c)), Q03530; AID 2563, 2010; yeast membranes, quenched prenylated peptide cleavage fluorescence; 0.27% of 290,000 active; calls only;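 active means fall in fluorescence gain of 50% or more versus controls, with final raw signal at or below 3038400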;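 further: plate controls were neutral control wells for no effect and wells lacking membranes for full effect; tested at 10 µM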
Target sequence (Q03530 whole entry, looked up): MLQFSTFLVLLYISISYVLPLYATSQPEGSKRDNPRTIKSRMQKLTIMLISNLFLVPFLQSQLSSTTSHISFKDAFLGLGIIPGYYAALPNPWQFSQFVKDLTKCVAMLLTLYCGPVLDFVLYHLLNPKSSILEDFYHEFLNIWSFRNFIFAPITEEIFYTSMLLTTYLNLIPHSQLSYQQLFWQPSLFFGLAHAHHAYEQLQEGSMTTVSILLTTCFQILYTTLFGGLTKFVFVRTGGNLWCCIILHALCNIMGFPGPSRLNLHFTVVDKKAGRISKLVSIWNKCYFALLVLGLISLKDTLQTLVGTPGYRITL
PABP FP inh: PABP poly(A) RNA binding inhibitors, primary screen, biochemical, fluorescence polarization, uHTS. inhibition, % at 35 µM. 1% of 290,000 active. AID 2014, 2009;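 active means 50% or more with normal probe brightness, or confirmed in later tests; about a fifth of its hits are not listed in these tables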;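 further: calls also rest on retests at 20 µM and on dose response follow-up; controls were probe without protein and protein plus probe with vehicle; some compounds called inactive have numbers as strong as hits; many hits fall short of the cut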
Target sequence (P11940 whole entry, looked up): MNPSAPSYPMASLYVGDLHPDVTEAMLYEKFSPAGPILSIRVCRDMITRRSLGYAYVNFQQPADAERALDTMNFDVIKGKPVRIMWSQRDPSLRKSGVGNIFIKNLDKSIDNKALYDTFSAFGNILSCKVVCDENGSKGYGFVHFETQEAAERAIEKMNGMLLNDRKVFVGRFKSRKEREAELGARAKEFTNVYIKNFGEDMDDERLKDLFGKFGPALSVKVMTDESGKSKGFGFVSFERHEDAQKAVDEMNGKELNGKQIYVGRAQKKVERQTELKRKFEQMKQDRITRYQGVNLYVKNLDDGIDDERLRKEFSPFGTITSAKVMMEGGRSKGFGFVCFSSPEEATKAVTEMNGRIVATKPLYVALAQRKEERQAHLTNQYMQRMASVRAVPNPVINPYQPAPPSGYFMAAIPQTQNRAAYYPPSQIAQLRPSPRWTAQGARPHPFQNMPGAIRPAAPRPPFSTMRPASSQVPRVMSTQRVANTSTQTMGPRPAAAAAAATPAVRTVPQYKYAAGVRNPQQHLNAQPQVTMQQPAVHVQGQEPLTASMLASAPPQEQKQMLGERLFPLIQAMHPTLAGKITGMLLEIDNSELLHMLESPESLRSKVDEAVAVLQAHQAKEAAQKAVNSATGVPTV
CSC inhib: cancer stem cell viability inhibitors, primary screen, luminescence; 1.1% of 300,000 active; cancer stem cell-like cells viability; inhibition, % at 7.5 µM;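 active means mean at 75% or more and at least half the replicates too; tested in HMLE shEcad cells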;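 further: 0% = median of negative and 100% = median of positive control wells; the first replicate is given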
MT1-MMP act inh RFP: also measured in MT1-MMP act inh; calls as there; RFP signal change, %; measured here: RFP expression control read;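 0 = vehicle wells; hits needed this value within 50% of zero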
* hit, by the source's call; i = inactive; / = no result given.

SMILES	UUG fidelity	Env fusion inh	eIF4H FP inh	MT1-MMP act inh	MT1-MMP act inh RFP	Rce1 inhib	PABP FP inh	CSC inhib
CCOCCCNC(=O)c1ccc2c(=O)n(Cc3ccc(OC)cc3)c(=O)[nH]c2c1	-16	9	18	6	-3	i	-10	-13
CC(C)OCCCNC(=O)c1ccc(CS(=O)(=O)c2cccc(C(F)(F)F)c2)o1	0	14	1	2	-3	i	1	12
CC1(C)Oc2ccc3ccc(=O)oc3c2/C(=C/NNC(N)=O)C1=O	-18	-472	2	3	2	i	6	-16
CC(OC(=O)c1cccc(NS(C)(=O)=O)c1)C(=O)Nc1ccc2c(c1)OCO2 (stereo unspecified)	-1	1	/	-4	-21	/	/	/
CCOC(=O)C(CCCOc1ccc(C(C)CC)cc1)C(=O)OCC (stereo unspecified)	-25	15	-2	0	2	i	3	-9
O=c1nc(N2CCOCC2)ccn1-c1nc(-c2ccccc2)sc1-c1ccccc1	/	-3	-4	-1	0	i	3	-10
CSS(=O)(=O)c1cccc2cccnc12	14	18	-3	-2	4	i	6	-20
CCc1noc(C)c1C(=O)N1CCN(S(=O)(=O)c2ccc(Br)cc2)CC1	-3	3	/	-4	-4	i	/	36
CC(C)(C)c1cc(CNC(=O)C2CCC(=O)N(Cc3ccccc3F)C2)[nH]n1 (stereo unspecified)	-8	-12	/	1	4	/	/	/
O=C(CSCc1c(F)cccc1Cl)NNC(=S)NC1CCCCC1	-22	-2	17	3	-3	i	-8	-8
CCC1CCCCN1C(=O)c1ccc(OC)c(OC2CCN(C(C)C)CC2)c1 (stereo unspecified)	-6	-6	7	-3	-1	i	2	1
Cc1cccc(-c2cc3nc(C)c(C)c(NCCCn4ccnc4)n3n2)c1	-7	-6	3	4	-2	i	-12	16
COc1cccc(N2CC(NS(=O)(=O)c3cccnc3)CC2=O)c1 (stereo unspecified)	-18	5	/	-6	-1	i	/	6
O=C(CNS(=O)(=O)c1c(Cl)cccc1Cl)OCC(=O)N1CCN(c2ccccc2)CC1	-12	-3	-2	-11	-3	i	15	/
COC(=O)CC(N)c1ccc(Br)cc1 (stereo unspecified)	-14	-17	1	-3	0	i	-9	9
CCS(=O)(=O)N1CCN(c2ccccc2F)CC1	-2	-38	4	-2	4	i	-2	-10
O=C(CNC(=O)/C(=C/c1ccccc1)NC(=O)c1ccc(Br)cc1)OCc1ccccc1	/	10	5	-3	0	i	-3	5
O=C(N1CCOCC1)N1CCCN(C(=O)N2CCOCC2)CC1	-4	/	7	-1	2	i	-19	0
S=C(NCCN1CCOCC1)Nc1cccc2ccccc12	-11	26	3	0	1	i	3	-41
COc1ccc(-n2c(CNc3ccc(C)cc3)nnc2SCC(=O)Nc2nc(-c3ccccc3)cs2)cc1	-11	29	-3	4	4	i	7	3
Cc1ccccc1S(=O)(=O)Cc1ccc(C(=O)NCCCN2CCCC2)o1	1	-8	4	-2	5	i	-5	-8
O=C(O)CCCC(=O)N1CC(=O)Nc2ccccc21	-2	/	-3	0	5	i	2	/
CCC(c1nnc(SCC(=O)Nc2nnc(-c3ccccc3)o2)n1Cc1ccccc1)N(C)C (stereo unspecified)	-10	6	-7	0	0	i	0	3
Cc1ccc(NC(=O)c2ccc(Cl)c(N3C(=O)C=CC3=O)c2)cc1	/	/	-4	0	6	i	3	79*
CC1=C(C(=O)OCc2ccc3c(c2)OCO3)C(c2ccc(F)cc2)NC(=O)N1 (stereo unspecified)	10	100*	2	-29	-22	i	-2	55
CCN(CC)c1ccc(/C=N/NC(=O)Cc2ccc(OC)c(OC)c2)cc1	/	9	-12	-1	-1	i	2	-3
O=C(O)c1ccc(Nc2cc(Cl)c3nonc3c2[N+](=O)[O-])cc1	-17	0	1	2	1	/	0	-1
Cc1ccc(-c2nnc(Nc3ccc4c(c3)OCO4)c3ccccc23)cc1S(N)(=O)=O	-20	/	-15	13	4	i	-8	11
C/C=C\C=C/C(=O)Nc1cccc(C2=NOC3(C2)C[C@H](C(N)=O)N(C(=O)Cc2ccc([N+](=O)[O-])cc2)C3)c1 (stereo partly specified)	-13	-35	1	1	0	i	-2	-26
CC(=O)c1cccc(NC(=O)c2c(F)c(F)c(F)c(F)c2F)c1	-6	/	1	/	/	i	7	3
CCCOc1ccc(/C=C/C(=O)NC2CCCCC2)cc1	-6	-15	-9	0	-5	i	-2	-12
CCCCn1c(N)c(N(CC(C)C)C(=O)COc2cc(C)ccc2Cl)c(=O)[nH]c1=O	-13	-22	/	0	1	/	/	/
Cc1c(OCC(=O)NCCCN2CCOCC2)ccc2c3c(c(=O)oc12)CCCC3	-9	-7	-18	3	4	i	1	-19
O=C(NCc1cccs1)c1csc([C@H]2C[C@H](O)[C@@H](CO)O2)n1	-2	9	/	0	5	/	/	/
S=C(NN=Cc1ccc2c(c1)OCO2)NN=Cc1ccc2c(c1)OCO2	-18	-1	/	6	5	/	/	/
COc1ccc(OC)c(/C=N/NC(=O)c2cccc3ccccc23)c1	4	3	/	1	2	i	/	-2
O=C(COc1ccccc1)N/N=C/c1ccc([N+](=O)[O-])o1	/	-12	51*	-2	-4	i	69*	2
O=C(NCc1ccccn1)c1ccc(Cl)c(S(=O)(=O)Nc2ccccc2C(=O)NCc2ccccn2)c1	-27	-4	-5	-4	-1	i	0	-1
Cc1cc(C)n2nc(C(=O)OCC(=O)N3CC(C)CC(C)C3)nc2n1 (stereo unspecified)	-15	6	/	3	4	i	/	-7
COc1cc(/C=C2\C(=O)ON=C2c2ccc(Cl)cc2)ccc1O	/	10	/	/	/	i	/	87*
Cc1onc(-c2ccccc2Cl)c1C(=O)N1CCCCC1C (stereo unspecified)	-2	13	5	0	1	i	14	-9
CC(=O)CCc1ccc(OCC(O)CNC2CCCc3ccccc32)cc1 (stereo unspecified)	/	/	9	-4	-4	i	-8	14
Cc1ccc(OCc2nc(-c3cccnc3)no2)cc1C	1	11	-10	4	2	i	0	10
COc1ccc(CNC(=O)COC(=O)C2CC3C=CC2C3)cc1 (stereo unspecified)	/	-9	-11	8	6	i	16	0
Cc1ccc(NC(=O)C2CCN(c3cnccn3)CC2)cc1C	/	-2	-1	1	2	i	3	6
CCCCC(=O)Nc1nc2ccc3nc(C)sc3c2s1	-1	-29	-7	5	-3	i	-1	13
COc1ccc(N2CC(NC(=O)NCC(C)C)CC2=O)cc1 (stereo unspecified)	/	8	2	2	1	i	-8	-20
O=C(NCCC1=CCCCC1)C1CCN(S(=O)(=O)c2cccc3nonc23)CC1	/	/	3	/	/	i	11	-20
Cc1ccc(N=C/C(C(=O)C(F)(F)F)=C(\O)c2ccco2)cc1Cl	/	-128	-5	0	1	i	-4	-12
CCc1ccc(CNC(=O)CCCn2nc(C)n3ccnc3c2=O)cc1	-1	-2	-4	-2	1	i	6	/
S=C(NCc1ccccc1)Nc1nccs1	-9	-4	-11	-1	-2	/	3	-6
Cc1c(Br)c([N+](=O)[O-])nn1CCCC(=O)Nc1c(C)n(C)n(-c2ccccc2)c1=O	/	-6	-7	2	0	i	-11	-34
O=S(=O)(/N=C(/Nc1ccc(Cl)cc1Cl)c1ccccc1)c1cccs1	/	-9	-4	2	2	i	2	-12
Cc1occc1-c1nnc(SCC(=O)NC2CCCC2)n1C	-18	11	-17	5	6	/	-5	-11
CS(=O)(=O)N(CCc1ccccc1)CC(=O)N1CCCCC1	-8	7	4	-3	2	i	2	7
O=C(O)c1ccc(/C=N/N2CCN(Cc3ccccc3)CC2)cc1	-13	-12	-1	-4	1	i	-7	-4
Cc1cc(C)c(S(=O)(=O)Nc2ccccc2-c2ccccc2)c(C)c1	-29	5	-4	-15	-12	i	-4	15
O=C(Nc1cc2c(cc1Cl)OCCCO2)c1ccco1	-1	/	4	1	3	i	1	1
Fc1ccc(C2=Nn3c(nnc3-c3ccco3)SC2)cc1	-4	3	-2	2	-4	/	8	10
N#CCCN1CCN(C(=O)c2c(N)no[n+]2[O-])CC1	/	-4	-10	-2	0	i	-7	-2

Four of the compounds above, with bars between the fields:
SMILES | UUG fidelity | Env fusion inh | eIF4H FP inh | MT1-MMP act inh | MT1-MMP act inh RFP | Rce1 inhib | PABP FP inh | CSC inhib
Cc1c(Br)c([N+](=O)[O-])nn1CCCC(=O)Nc1c(C)n(C)n(-c2ccccc2)c1=O | / | -6 | -7 | 2 | 0 | i | -11 | -34
O=S(=O)(/N=C(/Nc1ccc(Cl)cc1Cl)c1ccccc1)c1cccs1 | / | -9 | -4 | 2 | 2 | i | 2 | -12
Cc1occc1-c1nnc(SCC(=O)NC2CCCC2)n1C | -18 | 11 | -17 | 5 | 6 | / | -5 | -11
CS(=O)(=O)N(CCc1ccccc1)CC(=O)N1CCCCC1 | -8 | 7 | 4 | -3 | 2 | i | 2 | 7

More compounds
SMILES	UUG fidelity	Env fusion inh	eIF4H FP inh	MT1-MMP act inh	MT1-MMP act inh RFP	Rce1 inhib	PABP FP inh	CSC inhib
CCOC(=O)Nc1sc2c(c1C(N)=O)CCC(C)C2 (stereo unspecified)	/	-2	1	-3	0	i	2	-12
Cc1[nH]c2ccccc2c1C(=O)C(=O)NCc1nnnn1-c1ccc(F)cc1	-16	-20	/	6	-2	/	/	/
O=C(O)c1ccccc1-n1cnnn1	-1	11	-9	0	4	i	6	/
Cc1ccc(S(=O)(=O)NC(=O)Nc2cccc(S(=O)(=O)N(C)C)c2)cc1	-20	-5	/	4	2	/	/	-2
CCCCCCCNC(=O)C1(CC2CC(c3ccc(Cl)cc3)=NO2)CCN(C(=O)CCCCCBr)CC1 (stereo unspecified)	-15	17	-9	0	-3	i	4	-4
Cc1nc2sc(C(c3cccc(F)c3)N3CCCCC3)c(O)n2n1 (stereo unspecified)	-22	/	0	5	2	i	-7	23
C=C[C@@H]1c2cccc(C)c2N(S(=O)(=O)c2ccc(C)cc2)[C@H](c2ccc(OC(C)=O)cc2)C1(C#N)C#N	-12	50	/	-1	-6	/	/	107*
O=C(C[C@H]1C/C=C\C[C@@H](NC(=O)OCC2c3ccccc3-c3ccccc32)C(=O)O[C@@H](c2ccccc2)CNC1=O)N[C@H](CO)Cc1ccccc1	-2	-56	/	-13	-9	/	/	/
O=C(NCc1ccc(N2CCCC2=O)cc1)Nc1cccc(Cl)c1	8	33	-6	-5	-10	i	-9	19
Cc1onc(-c2ccccc2Cl)c1C(=O)NCc1ccccc1F	-9	10	-1	1	2	i	6	14
COc1ccc(Cl)cc1NC(=O)C12CCC(C)(C(=O)O1)C2(C)C (stereo unspecified)	-10	/	-4	-4	-1	i	-4	1
CSc1ncccc1C(=O)NC(C)CCc1ccccc1 (stereo unspecified)	-7	-6	-4	/	/	i	-3	-14
COc1ccc(-c2ccc(SCC(=O)c3ccc(F)cc3)nn2)cc1OC	-6	2	-3	2	-7	i	-4	-5
CCc1nc(SCC(=O)Nc2ccc(OC)cc2[N+](=O)[O-])n[nH]1	/	0	-4	3	5	i	3	-19
COc1ccc(S(=O)(=O)NC2CCCCC2)cc1C	10	/	-5	2	-4	i	-2	-29
O=C(CC(C(=O)O)C1CCCO1)Nc1cccc(C(F)(F)F)c1 (stereo unspecified)	-12	-15	-4	0	2	i	1	-3
COc1cc(/C=C2\SC(=S)N(CCC(=O)Nc3ccccn3)C2=O)cc(OC)c1OC	-1	31	1	15	-2	i	-8	/
COCCOC(=O)c1c(NC(=O)CN2CCOCC2)sc(C(N)=O)c1C	-12	/	-13	2	2	i	20	-3
O=C(Cn1cc([N+](=O)[O-])cn1)N1CCc2ccccc21	-28	28	-8	-5	1	/	-1	-6
CCC(CO)Oc1cc(NCc2cccc(O)c2)c2ncn(C(C)C)c2c1 (stereo unspecified)	-17	-24	/	6	3	/	/	/

Bioassay records deposited in PubChem by several laboratories.
